# GCN5L2 inh: GCN5L2 (KAT2A) acetyltransferase inhibition. Q92830. GCN5L2 HAT assay, ThioGlo1 CoA-SH fluorescence. Potency, µM (series often up to 58.9 µM), for inactives: at the top dose activity change, negative = inhibition, usual class: inhibitors. hit rate 0.21% among 390,000. AID 504327
#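 Enzyme at 20nM final was mixed with library compounds for 15 min at room temperature. Peptide H3(1-25) at 75uM, acetyl-CoA at 70uM and ThioGlo1 at 50uM were then added. Plates were read immediately and after 20 min (Ex340nm/Em540nm).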
# FEN1 inh: inhibitors of human flap endonuclease 1; Recombinant FEN1 flap cleavage, fluorescence, 15 min; hit rate 0.35% among 390,000; P39748; Potency, µM (titrated, usually from 114 µM), for the others: at the highest dose activity change, negative = inhibition, most hits filed as inhibitors; further: nearly all actives have a fitted effect of over 65% in size
# Target sequence (P39748 whole entry, looked up): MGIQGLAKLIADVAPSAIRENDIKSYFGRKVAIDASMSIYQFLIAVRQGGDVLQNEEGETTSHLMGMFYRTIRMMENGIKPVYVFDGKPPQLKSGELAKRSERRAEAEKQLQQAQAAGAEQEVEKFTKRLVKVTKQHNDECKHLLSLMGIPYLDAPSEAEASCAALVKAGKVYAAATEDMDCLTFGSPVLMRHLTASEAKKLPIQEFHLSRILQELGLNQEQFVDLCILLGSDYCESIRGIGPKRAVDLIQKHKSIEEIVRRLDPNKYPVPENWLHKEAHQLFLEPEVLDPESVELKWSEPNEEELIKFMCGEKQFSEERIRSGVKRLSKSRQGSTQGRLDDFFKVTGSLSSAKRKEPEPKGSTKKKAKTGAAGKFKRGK
#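 Concentration–response screening of FEN1 (10 nM): 15 min compound preincubation at room temperature, reaction started with 50 nM substrate and read at 0 and 15 min. Corrected, normalized data were fitted by a four-parameter Hill equation.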
# Active calls of the source: *; ? = inconclusive; . = not tested or not shown; & = joins results of further samples; [ ] = remark or other dose. The call rests on the fitted dose curve; in most records, active means well fitted curve in the direction sought with a large enough effect; inconclusive means small, poorly fitted or top-dose-only effect, or another doubt; inactive means no such curve, though single readings can be large; an effect the other way counts as inactive or inconclusive. On the % scale 0 is the no-effect control and ±100 the full control effect; potency means the concentration at half of the fitted maximal effect. Only part of the results is shown; most or all hits stand in other tables.
SMILES,GCN5L2 inh,FEN1 inh
CN(C)C(=O)CSCc1c(Cl)cccc1Cl,-2%,-3%
COc1ccc(CCNC(=O)C(=O)NCc2ccccn2)cc1,-5%,-1%
Cc1[nH]nc(N2CCCCC2)c1[N+](=O)[O-],.,3%
Cc1cc(=O)oc2cc(OC(C)C(=O)NCCCN3CCCC3=O)c(Cl)cc12 (stereo not drawn),-1%,-6%
COCCNC(=O)/C(C#N)=C/c1c(F)cccc1Cl,-8%,-6%
CCOC(=O)C1=C(CS(=O)(=O)c2ccccc2)NC(=O)NC1c1cc(OC)c(O)c(OC)c1 (stereo not drawn),1%,-2%
CCOC(=O)c1c(S(=O)(=O)NCC(=O)Nc2ccc(F)cc2F)c(C)n(C)c1C,-5%,19%
Cc1ccc(NC(=O)Cn2cccc2C2=NC(c3ccccc3)CO2)cc1C (stereo not drawn),-2%,-1%
COc1ccc(-c2noc(CCC(=O)NCC3CCN(Cc4cccc(C)c4)CC3)n2)cc1,-5%,-4%
CC(=O)Nc1cccc(Nc2nc(-c3ccccc3F)nc3ccccc23)c1,-10%,-4%
COc1ccc(C(C(=O)NCC2CCCO2)N(Cc2ccco2)C(=O)c2snc(C(N)=O)c2N)cc1OC (stereo not drawn),-3%,3%
CCOc1ccccc1CN1CCNC(=O)C1CC(=O)N(C)C1CCOCC1 (stereo not drawn),-16%,-2%
CNNC(=O)C(C)NC(=O)c1ccc(Br)cc1 (stereo not drawn),1%,-11%
COc1cccc(C(=O)Nc2cc(Cl)c(O)c(Cl)c2)c1,3%,8%
Cc1nn(CCCC(=O)NC(C)c2ccccc2)c(=O)c2nn(-c3ccccc3)c(C)c12 (stereo not drawn),-3%,-12%
O=C1CCN(Cc2ccccc2)S(=O)(=O)c2ccccc21,-4%,6%&-7%
OCn1c2ccccc2c2ccccc21,13%,11%
CC1CCc2nc(N)c(C#N)c(-c3cccn3C)c2C1 (stereo not drawn),0%,-6%
O=C(NNC(=O)c1ccccc1Cl)c1cccnc1,-5%,1%
Oc1ccc(/C=N/NC(=S)N2CCOCC2)cc1,-7%,-1%
CC(=O)c1cccc(NC(=O)NN2CCN(C)CC2)c1,-1%,20%
Cc1ccc(NC(=O)CCC(=O)OCC(=O)c2ccc(Oc3ccc([N+](=O)[O-])cc3)cc2)cc1C,?,-19%
CCNC(=S)Nn1cnc2ccccc21,19%,3%
COc1ccc(C2=C(Nc3ccc(C)cc3)c3ccccc3C2=O)cc1,-5%,-1%
Nc1ccc(N2CCN(C(=O)c3cccs3)CC2)cc1,-4%,4%
Cc1c(NC(=O)C(C)OC(=O)c2cccnc2)c(=O)n(-c2ccccc2)n1C (stereo not drawn),-5%,-7%
O=C(NNC(=S)NCc1ccccc1)c1ccc(OC(F)F)cc1,2%,-2%
O=C(c1cnc2sccn2c1=O)N1CCN(c2ccccc2Cl)CC1,-4%,0%
Cc1cc(C)c2cc(C#N)c(SCC(=O)NCC3CCCO3)nc2c1 (stereo not drawn),-1%,11%
COc1ccc(CN(C)C(=O)Cc2ccc(OC)c(S(=O)(=O)N3CCOCC3)c2)cc1,-23%,2%
c1cncc(C2OCC3(CO2)COC(c2cccnc2)OC3)c1 (stereo not drawn),1%,1%
O=C(COC(=O)c1cc(=O)[nH]c2ccccc12)c1ccccc1,2%,8%
CCN(CC(=O)NCc1ccc(Cl)cc1)C(=O)/C=C/c1cccs1,-3%,0%
CCOC(=O)c1c(NC(=O)c2c(-c3ccccc3)noc2C)sc(C)c1-c1ccccc1,-9%[0.501 µM],7%
COc1ccc(Cc2n[nH]c(=S)n2Cc2ccccc2)cc1Cl,-4%,-9%
CC1(C)Cc2c(sc3c4nnnn4c4nnnn4c23)CO1,-1%,.
Cc1cc(N2C(=O)C3C4C=CC(C4)C3C2=O)ccc1Br (stereo not drawn),0%,-8%
COc1cccc(CN(C)CC(=O)NCc2ccc(C)cc2)c1,-4%,3%
Cn1c(=N)n(CC(O)c2ccco2)c2ccccc21 (stereo not drawn),2%,-3%
CNC(=O)c1c(NC(=O)C2=COCCO2)sc2c1CCC(C)C2 (stereo not drawn),-8%,-1%
COc1ccccc1C(CNC(=O)C1CCN(C(=O)Nc2ccccc2)CC1)N1CCCC1 (stereo not drawn),1%,-10%
CCc1ccc(OCC(=O)N2CC(C(N)=O)Oc3ccccc32)cc1 (stereo not drawn),-4%,-2%
CCOC(=O)C(=O)NCC(c1cccs1)S(=O)(=O)c1ccc(Cl)cc1 (stereo not drawn),-3%,18%
Cc1ccc(S(=O)(=O)N2CCOC2CNC(=O)C(=O)NCc2ccc3c(c2)OCO3)cc1 (stereo not drawn),-29%,7%
CC(c1nnc(Sc2nnnn2-c2ccccc2)n1-c1ccc(F)cc1)N(C)C (stereo not drawn),-10%,-6%
OCCN1C[C@H](O)[C@@H](O)[C@H](O)[C@H]1CO,3%,.
COC(=O)c1sc(S(=O)(=O)N2CCC(C(N)=O)CC2)c(C(=O)OC)c1C,2%,3%
CCOC(=O)CSc1ccc2nnc(CCNS(=O)(=O)c3ccccc3)n2n1,-5%&-1%,-10%&-7%
CC(=O)c1ccc(NC(=O)CC(C)S(=O)(=O)c2ccc3c(c2)CCN3C(C)=O)cc1 (stereo not drawn),-18%,2%
O=C(c1ccc([N+](=O)[O-])cc1)N1CCN(C(=O)c2cccnc2)CC1,-7%,8%

# 14 consecutive compounds already listed, for reference:
SMILES,GCN5L2 inh,FEN1 inh
CN(C)C(=O)CSCc1c(Cl)cccc1Cl,-2%,-3%
COc1ccc(CCNC(=O)C(=O)NCc2ccccn2)cc1,-5%,-1%
Cc1[nH]nc(N2CCCCC2)c1[N+](=O)[O-],.,3%
Cc1cc(=O)oc2cc(OC(C)C(=O)NCCCN3CCCC3=O)c(Cl)cc12 (stereo not drawn),-1%,-6%
COCCNC(=O)/C(C#N)=C/c1c(F)cccc1Cl,-8%,-6%
CCOC(=O)C1=C(CS(=O)(=O)c2ccccc2)NC(=O)NC1c1cc(OC)c(O)c(OC)c1 (stereo not drawn),1%,-2%
CCOC(=O)c1c(S(=O)(=O)NCC(=O)Nc2ccc(F)cc2F)c(C)n(C)c1C,-5%,19%
Cc1ccc(NC(=O)Cn2cccc2C2=NC(c3ccccc3)CO2)cc1C (stereo not drawn),-2%,-1%
COc1ccc(-c2noc(CCC(=O)NCC3CCN(Cc4cccc(C)c4)CC3)n2)cc1,-5%,-4%
CC(=O)Nc1cccc(Nc2nc(-c3ccccc3F)nc3ccccc23)c1,-10%,-4%
COc1ccc(C(C(=O)NCC2CCCO2)N(Cc2ccco2)C(=O)c2snc(C(N)=O)c2N)cc1OC (stereo not drawn),-3%,3%
CCOc1ccccc1CN1CCNC(=O)C1CC(=O)N(C)C1CCOCC1 (stereo not drawn),-16%,-2%
CNNC(=O)C(C)NC(=O)c1ccc(Br)cc1 (stereo not drawn),1%,-11%
COc1cccc(C(=O)Nc2cc(Cl)c(O)c(Cl)c2)c1,3%,8%

# Continuation:
SMILES,GCN5L2 inh,FEN1 inh
COc1ccc(NC(=O)C(F)(OC)C(F)(F)F)c(OC)c1 (stereo not drawn),-9%,1%
CC(C)(C)c1ccc(C(=O)N2CCC(C(=O)NC3CC3)CC2)cc1,-4%,-13%
Cc1ccc(CNC(=O)CCNS(=O)(=O)c2cccs2)cc1,2%,4%
CC(NCCc1ccc(O)cc1)C(O)c1ccc(O)cc1 (stereo not drawn),2%&-6%,-13%
O=C(O)CN1c2cccc3cccc(c23)S1(=O)=O,-11%,-2%
O=C(O)c1cc([N+](=O)[O-])ccc1C(=O)Nc1cccc([N+](=O)[O-])c1,1%,-2%
CCN(CC)C(=O)Cn1cc(S(=O)(=O)CC(=O)NCc2ccc3c(c2)OCO3)c2ccccc21,-3%,-3%
COc1cccc(N2CCN(C3CC(=O)N(c4ccc(Cl)c(Cl)c4)C3=O)CC2)c1 (stereo not drawn),0%,-10%
CCOCCCNC(=O)C(NC(=O)CC1NC(=O)NC1=O)c1ccc(Cl)cc1 (stereo not drawn),-1%,1%
O=C(Nc1ccccc1N1CCN(C(=O)c2ccc(Cl)cc2)CC1)c1cccnc1,-4%,-6%
COc1ccc(C(=O)NCCc2ccccc2F)cc1OC1CCN(C(C)=O)CC1,0%,3%
COc1cc(C(=O)c2nccc3cc(OC)c(OC)cc23)c([N+](=O)[O-])cc1OC,-12%,-29%
Cc1ccc(C23CC4CC(CC(CN)(C4)C2)C3)cc1,5%,13%
O=C(CSc1nnc(NC(=O)C2CCC2)s1)Nc1ccccc1,-5%,-5%
Cc1nonc1CN(C)C(=O)CC1C(=O)NCCN1Cc1ccc(F)c(F)c1 (stereo not drawn),13%,3%
CCN(C(=O)COC(=O)CNC(=O)c1cccc(C)c1)c1c(N)n(Cc2ccccc2)c(=O)[nH]c1=O,-7%,-1%
CCCCNC(=O)CCn1nc(-c2ccc(C)cc2)c2ccccc2c1=O,30%[activator],-2%
CCOC(=O)c1ccccc1NC(=O)CSc1nnc(C)c(=O)[nH]1,0%,3%
O=C(Nc1ccc(S(=O)(=O)Nc2ccc(Cl)cc2)cc1)C1CCCO1 (stereo not drawn),-8%,3%
CCc1ccc(OCC(=O)N/N=C(\C)c2ccc3c(c2)OCCO3)cc1,-7%,-10%
Cc1cccc(-c2n[nH]c([N+](=O)[O-])n2)c1,-17%,5%
O=C(CCC1CCCN(C(=O)c2ccc3c(c2)OCCO3)C1)NCc1ccccc1F (stereo not drawn),-10%,4%
c1nc(Nc2ccc(N3CCOCC3)cc2)c2ccsc2n1,-6%,-4%
O=C(COC(=O)/C=C/c1cccs1)NC1CC1,-1%,7%
Fc1cccc(CNc2ncnc3ccc(-c4ccc5c(c4)OCO5)cc23)c1,-14%&-7%,?
CC(=O)N1CCN(c2ccccc2NC(=O)c2cccs2)CC1,-2%,17%
Cc1c(C)c2ccc(OCC(=O)NCCCn3ccnc3)cc2oc1=O,-4%,23%
COc1ccc(OCCC(=O)OCC(=O)NC2CCCCCCC2)cc1,-12%,-5%
O=C(NCc1ccc(F)cc1)Nc1ccccc1,-3%,-9%
CCc1ccccc1NC(=O)c1ccc([N+](=O)[O-])s1,-1%,-3%
Cc1onc(-c2ccccc2Cl)c1C(O)c1ccc(F)cc1 (stereo not drawn),15%,8%
COc1ccccc1C(=O)NC(CCSC)C(=O)NNC(=O)c1ccncc1 (stereo not drawn),-8%,-4%
O=C(COC(=O)/C=C/c1ccc(S(=O)(=O)N2CCOCC2)cc1)NCc1ccc(F)cc1,-12%,-12%
Cc1ccc(Cc2c(C)nc3nc(SCC(=O)NCCCN4CCCC4)nn3c2C)cc1,-2%,-10%
Cc1ccc(S(=O)(=O)N2CCC(C(=O)N3CCc4ccccc43)CC2)cc1,-27%,8%
O=C(Nc1ccnn1C1CCN(C2CCC2)CC1)c1cccc(F)c1,5%,21%
COc1cc(/C=N/O)ccc1OCc1ccc(C(=O)O)cc1,-8%,11%
CCN1C(=NCCN2CCOCC2)N[C@@H](CCc2ccccc2)C(C(=O)OC)=C1C,-10%&-4%,.
O=C(Nc1n[nH]c(C(F)(F)F)n1)c1cccs1,2%,3%
CCCn1c(N)c(N(CCOC)C(=O)C(C)Oc2ccc(F)cc2)c(=O)[nH]c1=O (stereo not drawn),-10%,15%
CCOc1ncccc1C(=O)OCC(=O)c1ccc[nH]1,-2%,3%
Cc1c(OC(C)C(=O)NCc2ccccn2)ccc2c3c(c(=O)oc12)CCCC3 (stereo not drawn),?,-20%
Cc1cc(C)c2c(N)c(S(=O)(=O)Cc3ccccc3)sc2n1,0%,4%
Cc1cc2c(cc1[N+](=O)[O-])NC(CNC(C)C)CC2 (stereo not drawn),-5%,-3%
O=C(O)C1C2C=CC(C2)C1C(=O)Nc1ccc(Cl)c(Cl)c1 (stereo not drawn),-5%,1%
NS(=O)(=O)c1ccc(CCn2c(=S)[nH]c3ccc(F)cc3c2=O)cc1,1%,-12%
CCOc1cccc(/C=N/NC(=O)c2ccc3c(c2)OCCO3)c1O,-8%,1%
COC(=O)c1ccccc1NC(=O)C1CCCO1 (stereo not drawn),3%,7%
COc1ccc(CCNC(=O)[C@H](C)NC(=O)N2CCn3c2nc2ccccc23)cc1OC,-20%,3%
CN(Cc1ccc(F)cc1)C(=O)CNC(=O)C1CCCCC1,-13%,-3%
# Continued:
SMILES,GCN5L2 inh,FEN1 inh
CSc1ccccc1C(=O)NCc1ccc(F)cc1,-12%,-11%
COc1cccc(/C=N/n2c(C)nc3ccccc3c2=O)c1O,-1%,-7%
Cn1c(=O)cc(SCC(=O)NCCCN2CCN(c3ccccc3F)CC2)c2ccccc21,-2%,-13%
COc1ccc(-n2nc3c(c2NC(=O)C(C)Oc2ccccc2)CS(=O)C3)cc1 (stereo not drawn),-4%,-2%
Cn1c(=O)oc2cc(S(=O)(=O)NCCC(=O)N3CCc4ccccc43)ccc21,2%,0%
N#Cc1cccc(N=Cc2c(O)ccc3ccccc23)c1,-5%,-27%
Cc1noc(C)c1CSCC(=O)OCC(=O)NC1CCCCC1,2%,-3%
Cc1ccccc1CN1CCNC(=O)C1CC(=O)NC1CCCCCCC1 (stereo not drawn),-2%,-2%
C/C(=N\NC1=N[C@H]2CS(=O)(=O)C[C@H]2S1)c1ccccc1,-1%,-6%
Cc1cc(C)nc(SCc2nnc(SCC(=O)Nc3cc(C(F)(F)F)ccc3Cl)o2)n1,-6%,-9%
CCOC(=O)c1c(C)[nH]c(C(=O)NCCc2ccc(OC)c(OC)c2)c1C,-4%,-7%
CC1CCN(c2ccc3nnc(CCC(=O)Nc4ccc(F)c(F)c4)n3n2)CC1,-16%,-2%
